Screening results: PubChem, National Center for Advancing Translational Sciences (NCATS)
D2 PAM: Beta-Arrestin HTS for Positive Allosteric Modulators of the Human D2 Dopamine Receptor: Potentiators; D(2) dopamine receptor (Homo sapiens), P14416; DiscoveRx D2 beta-arrestin cells, luminescence, 90 min; 100% = 57 uM dopamine signal; potentiation, % (test concentration not listed); 360,000 compounds, 0.23% hits; AID 624464, 2012; active = potentiation of 50% or more; inconclusive = 30% to 50%; inactive = 30% or less;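 note: compound concentration not given in the record; tested on top of an EC20 dose of dopamine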
Target sequence (P14416 whole entry, looked up): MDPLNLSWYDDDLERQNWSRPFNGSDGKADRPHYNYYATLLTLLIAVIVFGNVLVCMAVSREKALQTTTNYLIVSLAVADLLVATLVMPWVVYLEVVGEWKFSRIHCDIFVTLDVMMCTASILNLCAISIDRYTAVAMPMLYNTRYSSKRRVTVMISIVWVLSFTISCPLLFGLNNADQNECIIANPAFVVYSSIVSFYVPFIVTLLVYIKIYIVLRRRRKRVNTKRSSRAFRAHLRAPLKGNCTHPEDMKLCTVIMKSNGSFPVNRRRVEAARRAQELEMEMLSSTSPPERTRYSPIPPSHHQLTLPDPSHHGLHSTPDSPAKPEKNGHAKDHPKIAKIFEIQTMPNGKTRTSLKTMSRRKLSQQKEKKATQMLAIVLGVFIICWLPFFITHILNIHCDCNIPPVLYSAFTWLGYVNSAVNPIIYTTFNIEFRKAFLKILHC
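D2 cells co-treated with compound plus 50 nM dopamine (EC20) for 90 min at 37 deg C to detect potentiation. Beta-arrestin recruitment was read as enzyme-fragment luminescence after 1 h at ambient temperature. Full response was set by 57 uM dopamine.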
D2 agonist: Beta-Arrestin HTS for Positive Allosteric Modulators of the Human D2 Dopamine Receptor: Agonists. AID 624465, 2012. D(2) dopamine receptor (Homo sapiens), P14416. 360,000 compounds, 0.084% hits. DiscoveRx PathHunter D2 beta-arrestin, luminescence, 90 min; 100% = 57 uM dopamine signal. activation, % (no concentration beside the values); in the data active = activation above about 40%; inconclusive = about 15% to 40%; inactive = below about 15%; note: compound concentration not given in the record; the text of the record calls up to 30% inactive
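DiscoveRx PathHunter D2 beta-arrestin cells (2,100/well) attached overnight, then compound-stimulated 90 min at 37 C in HBSS/10 mM HEPES/0.1% Tween-20 buffer; beta-galactosidase complementation read by luminescence after 1 h at ambient temperature. Dopamine 57 uM final (EC100) as control.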
CtBP-E1A inh: qHTS Assay for Inhibitors of the CtBP/E1A Interaction | CtBP / adenovirus E1A interaction (AlphaScreen) | AlphaScreen GST-E1A/His-CtBP binding, 1536-well; hits give low values; control for the full effect not named in the record | activity change, % (no concentration beside the values) | 340,000 compounds, 0.49% hits | AID 651724, 2012; in the data active means activity change below about -65%; inconclusive means about -30% to -65%; inactive means above about -30%; note: % is set by controls: 0 for no effect and ±100 for the full control effect
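GST-E1A and His-tagged CtBP (125 nM each as 5X stock) were preincubated with pin-transferred compound for 2 h at 37 °C in the dark, then glutathione donor and nickel acceptor beads were added for 1 h before AlphaScreen reading.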
Six1-Eya2 inh: qHTS Assay for Inhibitors of the Six1/Eya2 Interaction; AlphaScreen GST-Six1/His-Eya2 binding, biochemical; hits give low values; control for the full effect not named in the record; activity change, % (concentration not given with the values); 360,000 compounds, 0.56% hits; AID 651725, 2012; in the data active = activity change below about -65%; inconclusive = about -30% to -65%; inactive = above about -30%; note: % is set by controls: 0 for no effect and ±100 for the full control effect
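Six1/Eya2 binding was read as AlphaScreen signal after compounds were pinned into GST-Six1 plus His-tagged Eya2 (5X stock 250/500 nM) in pH 8.0 Tris/NaCl/TCEP buffer, beads added, then incubated 1 h, 37 C, dark.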
TRPML1 ag: qHTS for Agonists of the Human Mucolipin Transient Receptor Potential 1 (TRPML1) | TRPML1-expressing cells, Ca2+ dye fluorescence, FDSS; host cell line not named in the record; reference of the full effect not given here | activation, % (test concentration not listed) | 410,000 compounds, 0.12% hits; in the data active = activation above about 50%; inconclusive = about 30% to 50%; inactive = below about 30%; note: 0% is about no effect; the text of the record puts the active cut at 80%
Target sequence (Q9GZU1 whole entry, looked up): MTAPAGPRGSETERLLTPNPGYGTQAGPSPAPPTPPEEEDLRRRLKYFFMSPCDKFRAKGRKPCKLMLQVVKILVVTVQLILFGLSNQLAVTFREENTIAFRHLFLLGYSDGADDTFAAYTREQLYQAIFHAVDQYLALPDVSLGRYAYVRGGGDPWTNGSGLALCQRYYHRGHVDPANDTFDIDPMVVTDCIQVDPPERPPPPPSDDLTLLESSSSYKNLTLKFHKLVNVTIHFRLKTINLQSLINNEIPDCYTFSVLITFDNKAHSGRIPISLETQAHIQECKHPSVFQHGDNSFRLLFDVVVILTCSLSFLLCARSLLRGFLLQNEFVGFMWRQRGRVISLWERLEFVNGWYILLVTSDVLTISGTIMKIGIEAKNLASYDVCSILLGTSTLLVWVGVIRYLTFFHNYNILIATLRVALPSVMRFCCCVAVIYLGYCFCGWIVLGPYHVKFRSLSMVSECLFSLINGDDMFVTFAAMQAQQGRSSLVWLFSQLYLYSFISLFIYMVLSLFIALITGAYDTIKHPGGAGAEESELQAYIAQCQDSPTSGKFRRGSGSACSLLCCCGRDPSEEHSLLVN
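Agonist activity was taken from a 110 s kinetic Ca2+ dye read on the FDSS after pinning compounds onto TRPML1-DL cells. The cells were seeded at 1,500/well with Tet inducer, incubated about 16 h, then dye-loaded at room temperature.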
PINK1 modulator: A Quantitative High throughput Screen to Identify Chemical Modulators of PINK1 Expression; PINK1 immunofluorescence, high-content cytometry, 24 h; Potency, µM (highest dose often 76.6 µM), for the others: at the highest dose activation (PINK1 increase), hits mostly activators; 410,000 compounds, 0.2% hits; active = well fitted activation curve with a large enough effect; inconclusive = small, poorly fitted or top-dose-only effect; inactive = flat fitted curve, though single readings scatter; cell line not stated here;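 note: potency is the fitted concentration of half-maximal effect; % of control where 0% means no effect; nearly all actives have a fitted effect of over 65% in size; a mitochondrial uncoupler was the plate control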
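Decision-based qHTS: stable cells, 24 h exposure to five compound concentrations, CCCP as control. Fixed cells stained for PINK1 plus nuclear, mitochondrial and cell markers, cytometer read.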
An asterisk follows results filed as active; ? = inconclusive; . = no result given; [ ] = dose if it differs, or a comment.

SMILES | D2 PAM | D2 agonist | CtBP-E1A inh | Six1-Eya2 inh | TRPML1 ag | PINK1 modulator
COc1ccc2nc(NC(=O)c3sc4nc(C)cc(C)c4c3N)sc2c1 | -8.8 | -3.5 | 1.1 | 3.9 | 0.4 | 9.1%
O=C(CSc1ccc(-c2ccco2)nn1)Nc1ccccc1 | -1.5 | 0.1 | -16.0 | -20.7 | 1.0 | 1.5%
CC(C)(C)CC(=O)N1CCC(c2nc3c(nnn3Cc3c(F)cccc3Cl)c(=O)[nH]2)CC1 | 7.9 | -0.2 | -5.1 | 2.1 | -0.8 | 1.3%
COc1cc(/C=C2\C(=N)N3N=C(S(C)(=O)=O)SC3=NC2=O)ccc1OCCOc1ccccc1C | 1.7 | 0.4 | 2.0 | 2.6 | -1.6 | 0.9%
O=C(O)c1cc(N2CCOCC2)nc2ccccc12 | 1.9 | -7.8 | . | 4.8 | . | 2.1%
Cc1csc(CN(C)C(=O)CC2C(=O)NCCN2Cc2ccc(-c3ccccc3)cc2)n1 (stereo not drawn) | -1.2 | -5.2 | -9.9 | 17.9 | 0.4 | 0.2%
Cc1cccn2c(=O)nc(SCC(=O)Nc3ccc4c(c3)OCCO4)nc12 | -1.1 | 0.7 | -29.3 | -8.7 | -0.3 | -0.5%
COC(=O)CC1=NN(c2ccccc2)C(=O)/C1=C\c1ccc(OC)cc1 | -8.8 | -5.1 | -0.6 | 1.3 | 2.6 | 4.9%
Cc1cccc(-n2ccnc2SCC(=O)O)c1C | 12.2 | -2.6 | 12.5 | 5.4 | -1.2 | 0.9%
O=c1[nH]c(C2CCCN(S(=O)(=O)Cc3ccccc3)C2)nc2c1nnn2Cc1cccc(Cl)c1 (stereo not drawn) | -3.3 | -6.8 | 20.3 | 4.1 | 0.0 | 16.4%
Cc1ccc(C(CNS(=O)(=O)c2cc(F)ccc2F)N2CCN(C)CC2)cc1 (stereo not drawn) | -31.6 | -3.3 | 10.0 | 3.7 | 0.2 | 0.1%
Cc1ccc(C(=O)N2CCN(c3ccc(C(F)(F)F)cn3)CC2)o1 | -8.9 | -1.0 | 13.5 | -8.2 | 0.3 | 2.1%
COc1ccc(C(=O)Sc2ccc(Cl)cc2)cc1OC | 3.6 | -1.8 | 2.8 | 2.3 | 3.7 | 2.3%
CCCCC1(C(=O)OCC)CC(CN2CCOCC2)OC1=O (stereo not drawn) | 5.9 | -3.5 | 7.6 | 1.8 | -0.4 | -1.7%
O=C(NCC(c1ccco1)N1CCc2ccccc2C1)C(=O)Nc1cc(F)ccc1F (stereo not drawn) | 7.1 | -3.9 | -1.0 | -9.2 | -0.2 | 1.3%
O=C(Nc1cccc(NC(=O)c2ccco2)c1)c1cnccn1 | 5.5 | -0.3 | 1.4 | -2.8 | 0.0 | -2.9%
CCCCC(OC(=O)CN1C(=O)COc2ccccc21)C(=O)NC1CCCCC1 (stereo not drawn) | -5.1 | -0.9 | -0.6 | 12.3 | 0.2 | 1.0%
Cc1ccccc1S(=O)(=O)NC1OC(=O)C(Oc2ccccc2)=C1Br (stereo not drawn) | -3.2 | 0.6 | -18.4 | 0.0 | -0.7 | 0.8%
Clc1ccc2c(NCc3ccccn3)ncnc2c1 | -5.9 | 0.9 | -0.6 | -8.7 | 0.1 | -1.9%
Cc1ccc(SCC(=O)N2CCN(c3ccccn3)CC2)cc1 | -2.9 | -7.0 | 2.7 | -6.1 | 0.4 | 0.9%
Cc1cccc(C(=O)N(Cc2cccs2)C2CCS(=O)(=O)C2)c1 (stereo not drawn) | -4.5 | -3.3 | 1.0 | 0.6 | -0.1 | -0.6%
CC(=O)c1cccc(NC(=O)COc2ccc3oc(=O)cc(C)c3c2)c1 | -17.1 | -2.3 | -12.1 | -12.5 | . | 0.0%
CC(OC(=O)Cc1c[nH]c2ccccc12)C(=O)NC1(C#N)CCCCC1 (stereo not drawn) | -10.0 | -0.1 | 5.6 | -21.3 | -0.4 | -0.8%
CC1CN(C(=O)c2ccn(C)n2)CC(C)O1 (stereo not drawn) | -16.2 | -1.0 | -3.9 | 4.2 | 1.4 | ?
Cc1ccc2c(C)c(C(=O)Nc3cccnc3)oc2c1C | -5.7 | 0.0 | 4.2 | 3.1 | 1.2 | 1.9%

A few values from above:
CC(OC(=O)Cc1c[nH]c2ccccc12)C(=O)NC1(C#N)CCCCC1 (stereo not drawn) @ D2 agonist: -0.1
Cc1ccccc1S(=O)(=O)NC1OC(=O)C(Oc2ccccc2)=C1Br (stereo not drawn) @ Six1-Eya2 inh: 0.0

Single records (already shown). Order of values: D2 PAM	D2 agonist	CtBP-E1A inh	Six1-Eya2 inh	TRPML1 ag	PINK1 modulator
Cc1csc(CN(C)C(=O)CC2C(=O)NCCN2Cc2ccc(-c3ccccc3)cc2)n1 (stereo not drawn) is entered as -1.2	-5.2	-9.9	17.9	0.4	0.2%
O=C(CSc1ccc(-c2ccco2)nn1)Nc1ccccc1 is entered as -1.5	0.1	-16.0	-20.7	1.0	1.5%
Cc1ccc(SCC(=O)N2CCN(c3ccccn3)CC2)cc1 is entered as -2.9	-7.0	2.7	-6.1	0.4	0.9%
Cc1ccc(C(=O)N2CCN(c3ccc(C(F)(F)F)cn3)CC2)o1 is entered as -8.9	-1.0	13.5	-8.2	0.3	2.1%
Cc1ccccc1S(=O)(=O)NC1OC(=O)C(Oc2ccccc2)=C1Br (stereo not drawn) is entered as -3.2	0.6	-18.4	0.0	-0.7	0.8%

(list continues)
SMILES | D2 PAM | D2 agonist | CtBP-E1A inh | Six1-Eya2 inh | TRPML1 ag | PINK1 modulator
O=C(NCCCN1CCCCC1)c1ccc2c(=O)n(CCc3ccccc3)c(=O)[nH]c2c1 | -23.0 | -3.4 | 2.7 | 6.0 | 0.5 | 5.1%
O=c1[nH]c(SCc2c(Cl)cccc2Cl)nc2ccccc12 | 2.5 | -0.4 | -6.1 | 7.2 | -1.0 | -0.3%
Cc1nc2cc(N)ccc2n1C1CCCCC1 | 2.0 | -2.5 | -2.4 | -0.8 | 0.1 | 1.1%
COc1ccc(Cn2nnnc2CN(Cc2cc3cccc(C)c3[nH]c2=O)C2CCCC2)cc1 | -13.5 | -2.1 | 5.4 | 1.1 | 0.5 | 13.2%[38.3 µM]
O=C(Cn1nc(-c2cccc([N+](=O)[O-])c2)c2ccccc2c1=O)NCC1CCCO1 (stereo not drawn) | -0.1 | -0.4 | 0.3 | -8.0 | -0.8 | -1.5%
CC(=O)C1C(c2ccc(F)cc2)NC(=O)NC1(O)C(F)(F)F (stereo not drawn) | -12.8 | -1.8 | 1.6 | 26.3 | 0.1 | 1.2%
Cc1ccc(NC(=S)NCc2ccccc2)cc1S(=O)(=O)N1CCCCC1 | -9.3 | 0.3 | . | -10.8 | 0.1 | ?
CCN(CC)C(=O)CSc1nc(COc2ccccc2)nc2ccccc12 | -3.8 | 0.8 | -5.7 | 1.0 | 2.3 | 1.2%
CCn1cnc2cc(NC(=O)c3cccs3)ccc21 | -5.0 | 4.7 | -8.4 | 1.1 | -0.1 | 0.9%
O=C(Cc1c(F)cccc1Cl)Nc1nccs1 | -22.8 | 2.0 | 0.0 | 20.3 | 1.2 | 2.7%
Cc1ccccc1NC(C)C(=O)N/N=C/c1ccccc1OCc1cccc(Br)c1 (stereo not drawn) | -11.6 | -0.9 | -11.0 | -20.6 | 2.4 | 0.5%
COCc1ccc(C(=O)Nc2ccccc2C(=O)NCc2cccnc2)cc1 | -3.0 | 0.6 | 0.4 | -1.6 | 0.1 | 0.2%
CN(C)CCN=c1cc(-c2ccccc2)oc2ccc(Cl)cc12 | 3.0 | -1.3 | -3.7 | -11.4 | 0.7 | -1.0%
COCCCNC(=O)c1ccc2c3c(onc13)-c1ccccc1C2=O | 2.3 | ? | -1.7 | ? | 6.5 | -2.3%
Cc1cccc2[nH]c3c(N4CCN(C(=O)c5ccco5)CC4)ncnc3c12 | -16.4 | 3.8 | -18.1 | -13.4 | 0.8 | -2.2%
Cc1cc(OCCCC(=O)NCCc2nnc3ccccn23)ccc1Cl | -14.8 | 1.2 | . | 11.5 | 0.3 | 0.2%
OCCCC1CCCCN1Cc1nc(Cc2ccccc2Cl)no1 (stereo not drawn) | -2.0 | -7.2 | 2.7 | 2.1 | -0.5 | 0.1%
Cc1csc(NC(=O)c2cccc(C)c2C)n1 | -1.4 | -0.7 | -0.7 | 8.6 | 0.6 | 5.4%
CC(C)n1c(O)c(N=NC(=O)CNC(=O)Cc2ccc(Cl)cc2)c2ccccc21 | -21.4 | -1.6 | -6.4 | -14.6 | 0.6 | -1.0%
COc1cccc(CN2CCC(C(=O)N3CCN(Cc4ccc5c(c4)OCO5)CC3)CC2)c1OC | -19.5 | -3.9 | 6.2 | 7.1 | 0.0 | -0.7%
CC(C)CCn1nnnc1CN1CCN(C(c2ccccc2)c2ccccc2)CC1 | -5.6 | -6.1 | . | 17.2 | 2.6 | 4.7%
Cc1cc(C)c(NC(=O)COC(=O)C2CCCCC2)c(C)c1 | 0.4 | -0.4 | -11.6 | 7.9 | 1.8 | -0.3%
Cc1cc(C)c(C(N)=O)c(Nc2ccc3c(c2)OCCO3)n1 | -0.1 | 2.9 | 5.0 | 8.6 | 1.1 | -2.8%
COC(C(=O)Nc1ccnn1C1CCN(C(=O)c2ccc(C=O)cc2)CC1)c1ccccc1 (stereo not drawn) | -5.1 | -1.6 | -12.0 | -0.1 | 1.3 | -0.9%
CCN(CC)CCCN(C(=O)Cn1nnc(-c2ccc(OC)c(OC)c2)n1)C(C(=O)NC(C)(C)C)c1ccc(F)cc1 (stereo not drawn) | -5.8 | -6.0 | . | 2.2 | 0.5 | -0.3%
OCCN(CCO)c1ccc(C(c2ccc(Cl)cc2)c2ccc(N(CCO)CCO)cc2Cl)c(Cl)c1 | 6.7 | -3.0 | -5.1 | -18.7 | 2.2 | 1.4%
Cc1ccc(S(=O)(=O)N2CCC(C(=O)OC(C)C(=O)N(C)c3ccccc3)CC2)cc1C (stereo not drawn) | 2.0 | -0.9 | -3.2 | -1.3 | -0.7 | 1.2%
C=C(C)C(=O)Nc1ccc(OC(F)(F)C(F)F)c(NC(=O)C(=C)C)c1 | -11.0 | -0.8 | 1.0 | -11.1 | 2.4 | 0.0%
COc1ccc(Cl)cc1N1CC(c2nc3ccccc3[nH]2)CC1=O (stereo not drawn) | -8.4 | -3.9 | 0.5 | -5.6 | -0.6 | -0.7%
CCC(C)NS(=O)(=O)c1ccc(OCC(=O)N2CCC(C)CC2)cc1 (stereo not drawn) | 3.6 | 0.4 | 15.5 | -1.2 | 0.4 | -3.3%[38.3 µM]
